Bioassay records (PubChem BioAssay)
Rango release inh: qHTS Assay for Inhibitors of RanGTP induced Rango (Ran-regulated importin-beta cargo) - Importin beta complex dissociation; Biochemical FRET Rango-importin beta, RanGTP-induced dissociation; Potency, µM (top dose mostly 46.1 µM), for the others: top-dose activity change, negative = inhibition; 340,000 tested, 0.071% active; active means falling FRET ratio curve, often poorly fitted, with flat reads before Ran was added; inconclusive means other falling curves, or compound fluorescence or quenching; inactive means flat or rising ratio curve;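 further: potency means the concentration at half of the fitted maximal effect; % of control where 0% means no effect; nearly all actives have a fitted effect of over 45% in size; -100% = wells without RanGTP and RCC1; the record marks most hits as doubtful in a second field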
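FRET read at 45 min, room temperature: inhibitors block the CFP/YFP signal rise when RanGTP (0.6 uM Ran, 2 mM GTP, 0.2 uM RCC1) frees Rango (0.1 uM) from importin beta (0.25 uM). Pre-read after 5 min compound exposure flags interference.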
GLA inh pH 4.5: qHTS Assay for Inhibitors of Human alpha-Galactosidase at pH 4.5; 230,000 tested, under 10 active; activity change, negative = inhibition, % at 105 µM; purified enzyme, 4-MU-alpha-Gal fluorescence, pH 4.5; inconclusive = small, poorly fitted or top-dose-only inhibition, or a rising curve; inactive = flat fitted curve, though single readings scatter; no compound was filed as active;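 further: 0% = full activity with enzyme and -100% = basal without enzyme; dose as in the result columns while the protocol names 77 µM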
Rango-impB inh: qHTS Assay for Inhibitors of Rango (Ran-regulated importin-beta cargo) - Importin beta complex formation. AID 540263, 2011. Rango CFP/YFP FRET sensor + importin beta, 45 min. Potency, µM (titrated, usually from 92.2 µM), inactives show at the top dose inhibition of complex formation. 340,000 tested, 0.031% active. Importin subunit beta-1 (Homo sapiens), Q14974; active = rising FRET ratio curve, often small or poorly fitted; inconclusive = mostly compound fluorescence or quenching in the first reads; inactive = flat curves in all reads;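 further: potency means the concentration at half of the fitted maximal effect; 0% = DMSO wells and 100% = buffer wells lacking importin beta; nearly all actives have a fitted effect of over 15% in size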
Target sequence (Q14974 whole entry, looked up): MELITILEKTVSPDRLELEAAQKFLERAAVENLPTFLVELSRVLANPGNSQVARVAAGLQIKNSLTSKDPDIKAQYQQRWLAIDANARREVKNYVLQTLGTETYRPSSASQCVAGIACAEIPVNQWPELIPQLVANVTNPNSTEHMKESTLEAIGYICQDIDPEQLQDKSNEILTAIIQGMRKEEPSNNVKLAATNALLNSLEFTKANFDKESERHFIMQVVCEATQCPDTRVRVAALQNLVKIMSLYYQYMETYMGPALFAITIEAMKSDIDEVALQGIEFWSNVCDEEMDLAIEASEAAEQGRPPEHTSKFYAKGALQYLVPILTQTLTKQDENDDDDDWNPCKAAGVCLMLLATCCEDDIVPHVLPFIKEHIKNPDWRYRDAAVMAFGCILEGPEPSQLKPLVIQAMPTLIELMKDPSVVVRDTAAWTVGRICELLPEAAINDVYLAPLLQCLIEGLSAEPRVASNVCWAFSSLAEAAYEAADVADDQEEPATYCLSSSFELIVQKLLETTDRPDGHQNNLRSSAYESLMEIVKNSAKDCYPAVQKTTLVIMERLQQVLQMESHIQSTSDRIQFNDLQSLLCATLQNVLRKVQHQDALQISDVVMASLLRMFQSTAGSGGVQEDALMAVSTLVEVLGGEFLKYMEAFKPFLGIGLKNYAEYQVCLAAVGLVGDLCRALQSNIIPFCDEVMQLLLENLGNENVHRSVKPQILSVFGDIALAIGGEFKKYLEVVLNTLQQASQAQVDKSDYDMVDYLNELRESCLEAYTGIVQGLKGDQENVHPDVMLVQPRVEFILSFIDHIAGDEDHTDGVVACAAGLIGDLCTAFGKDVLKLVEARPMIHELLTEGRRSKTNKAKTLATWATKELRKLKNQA
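FRET biosensor Rango (snurportin 1 IBB between N-terminal EYFP and C-terminal Cerulean), 50 nM in PBS/1 mM DTT/0.02% Tween-20/0.1% BSA, preincubated 5 min RT with compound; 0.125 microM importin beta added, 45 min RT, CFP/YFP FRET ratio read.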
miR-21 reporter: qHTS Assay for Modulators of miRNAs and/orActivators of miR-21 | HeLa miR-21 FLuc reporter, luciferase, 48 h | Potency, µM (top dose mostly 38.3 µM), inactives show at the highest dose reporter change, positive = more light | 340,000 tested, under 10 active | AID 2288, 2010; active = well fitted rising curve with a large enough effect; inconclusive = small, poorly fitted or top-dose-only effect; inactive = no such curve, though single readings can be large or run the other way;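 further: % of control where 0% means no effect; miR-21 action dims this reporter so a rising signal means less miR-21 action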
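Compounds were titrated across several concentrations (up to approximately 40 uM) and incubated 48 hours with HeLa miR-21-FLuc reporter cells (miR-21 target sequence downstream of FLuc, endogenous miR-21). Readout was firefly luciferase luminescence after lytic detection reagent.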
The depositor's hits bear a star; ? = inconclusive; / = no result given; & = joins results of further samples. Some of the compounds tested; the hit share may differ from the screen's.

SMILES | Rango release inh | GLA inh pH 4.5 | Rango-impB inh | miR-21 reporter
COCCN(C(=O)CSc1n[nH]c(-c2ccc(OC)cc2)n1)c1c(N)n(Cc2ccccc2)c(=O)[nH]c1=O | 8% | / | 0.5% | /
CCOc1cc(OCC)cc(C(=O)Nc2cccc(C(C)=O)c2)c1 | 0% | 14 | 0.5% | 3%
CN(C)CCCC1Sc2ccccc2Sc2ccccc21 (stereo not given) | 8% | / | 6.5% | /
Cc1ccccc1NC(=O)c1snc2c(=O)[nH]cnc12 | / | -2 | / | 3%
O=C1CCCCN1CCc1c[nH]c2ccccc12 | 11% | -1 | 1.8% | -41%
O=C(OCC(F)(F)C(F)F)c1ccccc1C(=O)Oc1ccc(F)cc1F | -2% | 1 | 4.2% | -5%
CSCCC(NC(=O)c1ccccc1Br)C(=O)NCC1CCCCC1 (stereo not given) | 2% | 4 | ? | -4%
CCOc1ccccc1NC(=O)COC(=O)c1c(CC)noc1C | 36% | / | 6.7% | /
CC(=O)Nc1ccccc1NC(=O)C/C(C)=N/NC(=O)C(=O)N1CCCCC1 | 12% | / | 1.0% | -2%
COc1ccc(-c2csc(NS(=O)(=O)c3ccc([N+](=O)[O-])cc3)n2)cc1 | 12% | 3 | 3.7% | -5%
Cc1ccc(Nc2nc(N)nc(CN3CCN(C)CC3)n2)cc1 | -1% | 6 | 2.2% | -24%
Cc1nn(CC(=O)Nc2ccc3c(c2)OCO3)c(C)c1[N+](=O)[O-] | 0% | -6 | 1.4% | -10%
O=C(O)CCc1nnc2n(Cc3ccc(F)cc3)c(=O)c3ccccc3n12 | 5% | -5 | -0.4% | 0%
Cc1nc(N2CCN(c3ccccn3)CC2)c2c(C)c(C(=O)Nc3ccc(F)cc3F)sc2n1 | 21% | -3 | -0.1% | 2%
COCCN(CCOC)C(=O)c1cc2c(=O)n3ccccc3nc2s1 | -16% | ? | -6.2% | -41%
Cc1cc(C)nc(NC(=O)c2ccc(Br)cc2)n1 | 11% | / | -3.3% | -8%
CCc1ccc(OC)c(S(=O)(=O)Nc2ccccc2C)c1 | -12% | -4 | -7.6% | -1%
COc1cc(Cl)cc2c1Sc1ccccc1/C2=C/CCN(C)C | -12% | / | -2.3% | ?
CCOC(=O)CSc1nnc(-c2ccncc2)o1 | -13% | 2 | 5.6% | -6%
Cc1ccc(C(=O)CC2(O)C(=O)N(Cc3ccc4c(c3)OCO4)c3ccccc32)cc1 (stereo not given) | 20% | 5 | -2.8% | -14%
O=C(CSc1nnnn1C1CCCCC1)NCc1cccs1 | 0% | 4 | -3.4% | -3%
Cc1ccc(CN(C)c2nc(-c3cccnc3)nc3ccccc23)o1 | -12% | / | 0.8% | 0%
NC(=O)Cc1ncc(C(F)(F)F)cc1Cl | 2% | 7 | 4.7% | 2%
CC(C)(C)OC(=O)NCCC(=O)N/N=C/c1cccc2cccnc12 | -8% | 6 | -2.3% | 2%
Cc1occc1-c1nnc(SCC(=O)c2ccc(F)cc2)n1Cc1ccco1 | -12% | -5 | -0.7% | 1%
Cc1ccc(N(CC(=O)N2CCc3ccccc32)C2=NC(=O)CS2)cc1 | 13% | 0 | -4.0% | -25%
COc1cccc(CNS(=O)(=O)/C=C/c2ccc3c(c2)OCO3)c1 | 18% | -3 | 0.0% | -10%
CCN(CC)S(=O)(=O)c1ccc(S(=O)(=O)N2CCN(CCC#N)CC2)cc1 | -5% | 2 | -2.4% | 0%
CC(Sc1nc(O)c(-c2ccccc2)c(=O)[nH]1)C(=O)Nc1ccc(Cl)cc1 (stereo not given) | 21% | ? | -1.4% | -12%
Cc1ccc(-c2nnc(Oc3cccc(C)c3)c3ccccc23)cc1 | 27% | 7 | -1.1% | -4%
O=c1c2cn[nH]c2[nH]c(=S)n1-c1cccc2ccccc12 | -4% | -6 | -0.8% | -7%
CCOc1ccc(NS(=O)(=O)c2ccc(C(=O)NCc3ccccn3)cc2)cc1 | -14% | / | 3.9% | /
C=CCNCCOCCOc1ccc(Cl)cc1C(C)(C)C | -1% | -15 | 0.4% | -6%
CC(C)(C)C(=O)Nc1ccc(S(=O)(=O)c2ccc(NC(=O)C(C)(C)C)cc2)cc1 | 4% | 6 | 3.9% | 0%
COc1ccc(CNC(=O)c2ccc3c(c2)N(C)CCS3)cc1 | -3% | / | -1.1% | -18%
O=C(COC(=O)C1CC2C=CC1C2)Nc1cccc(S(=O)(=O)N2CCCCC2)c1 (stereo not given) | 6% | -5 | -2.9% | 2%
Cc1ccc(O)c(NC(=O)c2cc(-c3ccc(F)cc3)on2)c1 | 15% | 9 | -0.1% | -28%&-53%
NS(=O)(=O)c1ccc(NC(=O)CCCC(=O)O)cc1 | -6% | 6 | -3.2% | -1%
Cc1ccc(-c2nn(-c3cc(Cl)ccc3[N+](=O)[O-])c(=O)c3ccccc23)cc1 | 10% | -10 | -1.4% | -7%
COC(=O)[C@H](Cc1ccccc1)NC(=O)[C@@H](N)CC(=O)O | -19% | / | 1.7% | /
O=C(CC(=O)Nc1ccccc1F)Nc1ccccc1F | -20% | / | -1.5% | -11%
CC1CCc2nc3ccccc3c(C(=O)OCC(=O)NC3CCS(=O)(=O)C3)c2C1 (stereo not given) | 5% | 5 | -1.4% | 1%
c1ccn2c(SCc3ccc4c(c3)OCCO4)nnc2c1 | 0% | 8 | -2.5% | -51%
Cc1ccc(-c2csc3nc(C)n(N)c(=O)c23)cc1 | 0% | 9 | -2.5% | -2%
Cc1ccc(NC(=O)CSc2nnc(COc3ccccc3C)o2)cc1 | 0% | 2 | 0.0% | 3%
Cc1ccc(C(=O)c2cc([N+](=O)[O-])ccc2N2CCOCC2)c(C)c1 | 1% | 4 | 4.0% | 19%
CC(C)NC(=O)c1ccccc1NC(=O)CN(c1ccc2c(c1)OCO2)S(C)(=O)=O | -9% | -1 | 3.6% | -13%
Cc1c(C(=O)Nc2ccc(Oc3ccccc3)cc2)sc2nc3n(c(=O)c12)CCC3 | -5% | -8 | -1.4% | 14%
Cc1cccc(N(CC(=O)NC(C)C)C(=O)c2ccc(N3CCCC3)nc2)c1 | 3% | -1 | -2.1% | 3%
CC[C@@H]1C=C(C(=O)O)[C@H](c2ccc(OC)c(OC)c2)N1S(=O)(=O)c1ccc(C)cc1 | -2% | / | -0.3% | /
CC(NS(=O)(=O)OCC(Cl)(Cl)Cl)c1ccc(Br)cc1 (stereo not given) | -4% | / | -0.6% | 0%
O=C(NCc1cccc(F)c1F)C1CCC(=O)N(C2CC2)C1 (stereo not given) | -11% | / | 0.0% | -5%
C=CC(C)(C)c1c2occc2c(O)c2ccc(=O)oc12 | 2% | / | 3.4% | /
OCCN(Cc1ccccc1)CC(O)COc1ccc2c(c1)OCO2 (stereo not given) | 0% | / | 0.2% | -5%
CCOC(=O)CSC1=C(C#N)C(c2ccccc2OC)CC(=O)N1 (stereo not given) | 12% | 2 | 0.2% | 20%
CCc1ccc2nc(SCC(=O)Nc3ccccc3N3CCOCC3)c(C#N)cc2c1 | 1% | -4 | 3.1% | -2%
COc1ccccc1N1CCN(S(=O)(=O)CCNC(=O)C2CCCC2)CC1 | 28% | / | 0.9% | /
COCCNc1nnc(SCC(=O)Nc2sc3c(c2C(=O)c2ccccc2)CCCC3)s1 | -7% | -2 | 0.7% | 7%
Oc1ccc(C(c2nnnn2CCc2ccccc2)N2CCN(c3nc4ccccc4s3)CC2)cc1 (stereo not given) | -6% | -8 | -2.4% | -7%
Cc1csc(NC(=O)CSc2nc(=O)cc(N)n2-c2ccc(F)cc2)n1 | 9% | / | 0.9% | 2%
Further records:
SMILES | Rango release inh | GLA inh pH 4.5 | Rango-impB inh | miR-21 reporter
O=S(=O)(c1ccc(OCC2CO2)cc1)c1ccc(OCC2CO2)cc1 (stereo not given) | 6% | -1 | 4.4% | -1%
COc1ccc(-n2c(SCC(=O)Nc3cccc4ccccc34)nc(O)cc2=O)cc1 | -7% | 1 | -16% | 2%
Oc1c(Br)cc(/C=N/n2c(-c3ccccc3)n[nH]c2=S)cc1Br | 3% | / | -2.2% | 1%
C=CCn1c(SCC(=O)N2CCOCC2)nc2c([nH]c3ccccc32)c1=O | 23% | / | -1.0% | -2%
CCCN1C(=O)NC2(O)C(=O)c3ccccc3C12O (stereo not given) | 1% | 2 | -1.3% | 2%
O=C(COC(=O)c1ccccc1Br)NCCc1ccc(F)cc1 | -1% | -3 | 1.8% | -5%
CC(C)(C)c1ccc(C(=O)NCCCN2CCN(CCCNC(=O)c3ccc(C(C)(C)C)cc3)CC2)cc1 | 31% | ? | -4.1% | 20%
CS(=O)(=O)N1CCCC(C(=O)NCCCN2CCN(Cc3ccccc3)CC2)C1 (stereo not given) | 0% | -7 | 0.4% | -4%
O=C(O)c1ccc(N2CCCCCC2)c(N2C(=O)c3ccccc3C2=O)c1 | -5% | 8 | 4.7% | 0%
Cc1cc(C)c(S(=O)(=O)Nc2ccc(OCC(=O)O)cc2)c(C)c1 | -5% | -16 | -0.6% | -5%
CC(Sc1nc2ccccc2c(=O)n1C)C(=O)Nc1ccc2c(c1)OCCO2 (stereo not given) | 15% | / | 0.9% | /
COC(=O)c1cc(NC(=O)c2cccs2)ccc1N1CCOCC1 | 12% | 1 | 0.8% | 1%
COc1c(-c2ccc(O)c(O)c2)oc2cc(O)cc(O)c2c1=O | 1% | -8&0 | 9.2% | 22%
Cc1[nH]c(=S)[nH]c(=O)c1Cc1ccc(OCC(C)C)cc1 | 15% | 2 | 0.5% | 16%
COc1ccc(-n2nnnc2SCC(=O)N2CCOCC2)cc1 | 8% | -5 | 1.0% | -10%
Fc1ccc(OCCOCCOc2cccc3[nH]ccc23)cc1 | 0% | -2 | -3.6% | -8%
CSc1ccc2c(c1)C(N1CCN(C)CC1)Cc1ccc(F)cc1S2 (stereo not given) | -8% | / | -4.1% | /
C1COCCNCCOCCOCCN1 | -11% | 4 | -0.8% | -1%
CCc1cc(C(=O)N2CCCC(C(=O)c3cccc4ccccc34)C2)n(C)n1 (stereo not given) | 4% | 5 | -0.3% | 13%
Cc1cc(C)n2nc(-c3cccc(Br)c3)cc2n1 | -3% | / | -1.5% | -74%
COc1ccccc1N(CC(=O)NC1CCCCC1)S(=O)(=O)c1ccccc1 | 0% | / | 4.6% | 3%

In a second layout: entries from further up
Rango release inh | GLA inh pH 4.5 | Rango-impB inh | miR-21 reporter | smiles
0% | -7 | 0.4% | -4% | CS(=O)(=O)N1CCCC(C(=O)NCCCN2CCN(Cc3ccccc3)CC2)C1 (stereo not given)
-5% | 8 | 4.7% | 0% | O=C(O)c1ccc(N2CCCCCC2)c(N2C(=O)c3ccccc3C2=O)c1
-5% | -16 | -0.6% | -5% | Cc1cc(C)c(S(=O)(=O)Nc2ccc(OCC(=O)O)cc2)c(C)c1
15% | / | 0.9% | / | CC(Sc1nc2ccccc2c(=O)n1C)C(=O)Nc1ccc2c(c1)OCCO2 (stereo not given)
12% | 1 | 0.8% | 1% | COC(=O)c1cc(NC(=O)c2cccs2)ccc1N1CCOCC1
1% | -8&0 | 9.2% | 22% | COc1c(-c2ccc(O)c(O)c2)oc2cc(O)cc(O)c2c1=O
15% | 2 | 0.5% | 16% | Cc1[nH]c(=S)[nH]c(=O)c1Cc1ccc(OCC(C)C)cc1
8% | -5 | 1.0% | -10% | COc1ccc(-n2nnnc2SCC(=O)N2CCOCC2)cc1
0% | -2 | -3.6% | -8% | Fc1ccc(OCCOCCOc2cccc3[nH]ccc23)cc1
-8% | / | -4.1% | / | CSc1ccc2c(c1)C(N1CCN(C)CC1)Cc1ccc(F)cc1S2 (stereo not given)
-11% | 4 | -0.8% | -1% | C1COCCNCCOCCOCCN1
